Screening results from PubChem.
RanGTP-Imp inh = inhibitors of RanGTP-importin-beta interaction, primary screen, biochemical, FRET, CFP-Ran, YFP-importin-beta, homogeneous. cell-free CFP-Ran/YFP-importin-beta FRET ratio. inhibition, % (no concentration beside the values). 300,000 tested, 1.1% active. AID 2216;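 active = most replicates above 15%; inconclusive = exactly half above 15%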;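 note: 0% = DMSO wells and 100% = Ran loaded with GDP instead of GTP; wells of about 40 µL received 100 nL stock; the first replicate is given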
ALR inh = inhibitors of human sulfhydryl oxidase ALR | inhibition, % (concentration not given with the values) | P55789 | 290,000 tested, 3.8% active | purified ALR, DTT oxidation, H2O2 HRP-luminol luminescence;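 active = mean and each replicate at 75% or more; inconclusive = only one of the two met; inactive = neither met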;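 note: stock transfer was 7.5 nL into about 7.5 µL; 0% = neutral wells and 100% = wells with inactivated enzyme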
Target sequence (P55789 whole entry, looked up): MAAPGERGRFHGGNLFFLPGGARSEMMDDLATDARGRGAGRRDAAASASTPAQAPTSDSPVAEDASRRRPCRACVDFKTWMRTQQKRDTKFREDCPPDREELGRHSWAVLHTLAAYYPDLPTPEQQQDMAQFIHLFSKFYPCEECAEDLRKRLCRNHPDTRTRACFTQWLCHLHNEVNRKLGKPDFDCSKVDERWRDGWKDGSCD
Beta apoptosis = blocks beta cell apoptosis; INS-1E cytokine-induced death, ATP luminescence, 48 h; percent of positive-control rescue, neutral wells zero; protection from apoptosis, % (concentration not given with the values); 300,000 tested, 0.8% active; AID 435005;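 active = all replicates at 75% or more, or half of them and the mean; inconclusive = half reach 75% but not the mean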;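 note: 0% = cytokine-treated negative control wells and 100% = positive control rescue; higher means more ATP so stronger rescue from cytokine killing; wells of about 40 µL received 100 nL stock; the first replicate is given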
Calb FLC = affects C. albicans growth with fluconazole; C. albicans CaCi-2 (fluconazole-resistant clinical isolate) + fluconazole, Alamar Blue growth, 48 h; growth inhibition, % (concentration not given with the values); 300,000 tested, 0.57% active; AID 1979;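 active = most replicates above 75%; inconclusive = exactly half above 75%; inactive = most below 75%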;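 note: all wells also contain fluconazole at 8 µg/ml as a sub-toxic cotreatment; 0% = median of DMSO wells and 100% = median of geldanamycin control wells; wells of about 8 µL received 7.5 nL stock; the first replicate is given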
FGF22 binding = FGF22 (human) thermal shift binding. Q9HCT0. recombinant FGF22 thermal shift, SYPRO orange fluorescence; percent of sucrose octasulfate shift, DMSO zero. calls only at 9.99 µM. 340,000 tested, 1.5% active;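 active = melting point raised past a set limit in the mean and every replicate; inconclusive = no clear call; three in four hits are not shown here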
Target sequence (Q9HCT0 whole entry, looked up): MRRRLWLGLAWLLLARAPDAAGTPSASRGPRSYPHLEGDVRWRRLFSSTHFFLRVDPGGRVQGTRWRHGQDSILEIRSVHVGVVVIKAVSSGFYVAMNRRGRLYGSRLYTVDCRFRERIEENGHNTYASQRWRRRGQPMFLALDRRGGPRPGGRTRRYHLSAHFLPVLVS
MLL AF4-AF9 inh = MLL-AF4/AF9 protein interaction inhibition; P42568; inhibition, % at 10 µM; AlphaScreen, biotin-AF4 peptide binding to FLAG-AF9; 350,000 tested, 0.47% active;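 active = every replicate reaching a set inhibition limit, whatever the replicate mean, cut at about 25% in these data; inconclusive = mean inhibition reaches that limit but some replicates miss it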;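 note: 0% = plate neutral control median and 100% = total signal loss; the record names both 10 and 1 µM as test concentration; the first replicate is given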
Target sequence (P42568 whole entry, looked up): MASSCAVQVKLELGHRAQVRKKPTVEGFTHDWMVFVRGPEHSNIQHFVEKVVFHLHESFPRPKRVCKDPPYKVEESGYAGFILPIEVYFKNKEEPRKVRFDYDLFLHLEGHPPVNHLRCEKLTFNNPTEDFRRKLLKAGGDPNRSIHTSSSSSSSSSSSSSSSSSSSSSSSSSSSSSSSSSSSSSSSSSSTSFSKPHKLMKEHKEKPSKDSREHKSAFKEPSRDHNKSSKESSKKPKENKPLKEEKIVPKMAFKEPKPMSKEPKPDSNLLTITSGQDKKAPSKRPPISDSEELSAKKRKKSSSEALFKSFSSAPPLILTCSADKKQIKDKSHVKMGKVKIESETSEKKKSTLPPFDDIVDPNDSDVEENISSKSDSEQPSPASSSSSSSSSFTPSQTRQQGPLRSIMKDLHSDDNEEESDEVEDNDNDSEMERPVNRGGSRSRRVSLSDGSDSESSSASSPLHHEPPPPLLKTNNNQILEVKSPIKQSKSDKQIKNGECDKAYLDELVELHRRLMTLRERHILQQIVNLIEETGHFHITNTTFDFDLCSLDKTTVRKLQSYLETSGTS
Ecoli rRNA inh = inhibitors of bacterial rRNA selective over humanized ribosomes; E. coli WT GFP vs humanized-ribosome RFP mutants, fluorescence, 24 h; hits give low values; DMSO median 0, no signal -100; GFP signal change (wild-type ribosome), % (no concentration beside the values); 350,000 tested, 1.6% active; AID 720706;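 active = significant combined selectivity score with lowered wild-type GFP, culture density cut under 30%, mutant RFP and density less affected; inactive = any of these conditions unmet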; note: one replicate is shown; some compounds called inactive have numbers as strong as hits
T cruzi repl = T. cruzi replication inhibition. T. cruzi beta-gal in NIH3T3, luminescence, 90 h. inhibition, % (no concentration beside the values). 300,000 tested, 1.4% active. AID 1885;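 active = mean inhibition across valid replicates above about 55%, limit read from the data; inconclusive = mean below that limit but half or more replicates reach it; inactive = mean below it, under half of replicates reach it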;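 note: signal also drops with host cell toxicity which is not excluded here; 0% = plate median of DMSO wells and 100% = zero luminescence signal; higher percent means less beta-gal luminescence so fewer parasites; stock transfer was 50 nL into about 50 µL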
Ecoli rRNA inh OD600 = second read-out of Ecoli rRNA inh, no call of its own (marks repeat the call); OD600 change, %; measured here: OD600 growth;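 optical density of the mix in the first replicate; 0 = DMSO median and -100 = no signal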
Ecoli rRNA inh RFP = second read-out of Ecoli rRNA inh, no call of its own (marks repeat the call); RFP signal change, %; measured here: RFP humanized mutant strains;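 first replicate; 0 = DMSO median and -100 = no signal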
An asterisk follows results filed as active; i = inactive; ? = inconclusive; . = no result given; & = joins results of further samples.

SMILES	RanGTP-Imp inh	ALR inh	Beta apoptosis	Calb FLC	FGF22 binding	MLL AF4-AF9 inh	Ecoli rRNA inh	Ecoli rRNA inh OD600	Ecoli rRNA inh RFP	T cruzi repl
Cc1ccc(CN2C(=O)c3ccccc3Sc3ccc(C(=O)NCCCN4CCOCC4)cc32)cc1	5.1	.	-2	11	i	8.1	-45	-74	-2.2	12
CN(C)CCCNC(=O)c1cc(C(=O)c2cccc(Cl)c2Cl)c[nH]1	-2.6	-4	5	-8	i	0.6	7	6	0.0	40
COC(=O)CCC(=O)N1CCCC(CO)(Cc2ccccc2C)C1 (stereo not drawn)	-0.8	-24	0	17	i	0.2	7	8	-2.8	-7
O=C(CSc1nnc(NC(=O)c2ccccc2F)s1)Nc1ccccc1F	1.3	5	3	0	i	-2.0	-10	-9	-3.1	-1
O=C(N/N=C/c1ccc[nH]1)c1ccccc1OCc1ccc(F)cc1	2.3	.	-6	2	i	-15	-8	-8	2.4	4
O=C(CC1SC(N2CCCCC2)=NC1=O)Nc1ccc(C(=O)O)cc1 (stereo not drawn)	.	-1	-4	.	i	0.7	6	-1	0.1	.
CC1(C(=O)N2CCN(Cc3ccccc3Cl)CC2)CC1(Cl)Cl (stereo not drawn)	1.0	-5	3	-2	i	-15	-25	-25	-1.8	6
CC1=CC(C)(C)N=C(NC#N)N1	-1.2	.	-1	-5	.	.	.	.	.	-7
COc1cc(OC)cc(C(=O)Nc2nc3ccccc3[nH]2)c1	-1.6	6	3	-13	.	.	.	.	.	9
O=C(Cc1ccccc1Cl)Nc1nc2ccccc2[nH]1	-0.9	-10	10	-4	i	-6.9	-20*	-1.1*	0.2*	-9
Clc1ccccc1Nc1nnc(-c2ccncc2)s1	5.8	.	75*	-2	i	-14	-5	5	-3.9	24
COc1ccc(CC(=O)OCc2cc3ccccc3[nH]c2=O)cc1	-1.6	1	-2	2	.	.	.	.	.	-4
N#Cc1cccc(NC(=O)c2cncn2-c2ccccc2)c1	3.9	6	-5	3	i	-0.5	-1	4	-0.9	-12
O=C(C1=C[C@H](C2CC2)C[C@H](OCCCCO)O1)N1CCN(Cc2ccc3c(c2)OCO3)CC1	0.1	-4	6	-4	i	-12&-2.3	8	11	-0.1	36
CCCc1nc(SCC(=O)N2CCC(Cc3ccccc3)CC2)c2c(=O)n(C)c(=O)n(C)c2n1	7.5	8	4	-9	i	6.9	-6	-25	10	34
c1ccc(-c2noc(COc3ccc4c(c3)OCO4)n2)cc1	-1.2	-3	-4	2	.	.	.	.	.	5
CC(=O)c1ccc(N/N=C2/CCCNC2=O)cc1	0.0	99*	1	-14	i	-1.4	.	.	.	4
CCCN1C2=C(C(=O)CCC2)C(c2ccc(O)c(Br)c2)C2=C1CCCC2=O	?	4	-1	-6	.	.	.	.	.	-7
N#Cc1ccccc1OCC(=O)OCC(=O)NC1CCCC1	.	4	-3	.	i	2.9	10	12	0.6	.
CCOc1cc(C(=O)N/N=C/C(Br)=C/c2ccccc2)cc(OCC)c1OCC	6.1	-20	30	13	.	.	.	.	.	9
COc1cc(C(=O)Nc2c(C)cc(C)cc2C)c(Br)c(OC)c1OC	-1.6	0	-1	-16	i	-1.3	-3	-9	-3.1	-23
CC(=O)N(c1ccc2oc(=O)sc2c1)S(=O)(=O)c1cccs1	7.4	.	-6	56	.	.	.	.	.	-11
O=C(NCc1ccccc1)C12CC3CC(CC(C3)C1)C2	-4.5	-1	-3	-28	.	.	.	.	.	18
COc1ccc(Cl)cc1N(C)C(=O)CCNC(=O)Cn1cnc2ccccc2c1=O	0.1	-9	1	3	.	.	.	.	.	-12
Cc1c(OCC(=O)N[C@@H](Cc2c[nH]c3ccccc23)C(=O)O)ccc2c1oc(=O)c1ccccc12	6.3	-4	-8	1	i	-7.4	-13	-9	-3.5	-9
CCNS(=O)(=O)c1ccc(CCC(=O)N2CCN(c3cccc(Cl)c3)CC2)cc1	0.3	2	6	7	i	0.4	-14	-21	-1.9	18
CCOC(=O)N1CCN(C(=O)CN(C)S(=O)(=O)c2ccc(F)cc2)CC1	-3.5	-8	-2	-2	i	2.7	2	9	-2.5	-5
CC(=O)Nc1ccc(/C=N/NC(=S)NC(C)C)cc1	1.9	10	-5	-4	i	-0.2	0	7	-0.3	-11
Cn1c(CCN2CCN(c3ccccn3)CC2)nc2cc(NC(=O)COc3ccc(Cl)cc3)ccc21	1.3	-4	0	-4	i	0.4	1	5	4.6	30
CCOc1ccc(CNC(=O)c2ccc(Sc3ccc(Cl)cc3)c(NC(C)=O)c2)cc1	-4.8	-15	-2	3	.	.	.	.	.	48

Another view of part of the listing above.
compound,RanGTP-Imp inh,ALR inh,Beta apoptosis,Calb FLC,FGF22 binding,MLL AF4-AF9 inh,Ecoli rRNA inh,Ecoli rRNA inh OD600,Ecoli rRNA inh RFP,T cruzi repl
O=C(CC1SC(N2CCCCC2)=NC1=O)Nc1ccc(C(=O)O)cc1 (stereo not drawn),.,-1,-4,.,i,0.7,6,-1,0.1,.
CC1(C(=O)N2CCN(Cc3ccccc3Cl)CC2)CC1(Cl)Cl (stereo not drawn),1.0,-5,3,-2,i,-15,-25,-25,-1.8,6
CC1=CC(C)(C)N=C(NC#N)N1,-1.2,.,-1,-5,.,.,.,.,.,-7
COc1cc(OC)cc(C(=O)Nc2nc3ccccc3[nH]2)c1,-1.6,6,3,-13,.,.,.,.,.,9
O=C(Cc1ccccc1Cl)Nc1nc2ccccc2[nH]1,-0.9,-10,10,-4,i,-6.9,-20*,-1.1*,0.2*,-9
Clc1ccccc1Nc1nnc(-c2ccncc2)s1,5.8,.,75*,-2,i,-14,-5,5,-3.9,24

Later entries
SMILES	RanGTP-Imp inh	ALR inh	Beta apoptosis	Calb FLC	FGF22 binding	MLL AF4-AF9 inh	Ecoli rRNA inh	Ecoli rRNA inh OD600	Ecoli rRNA inh RFP	T cruzi repl
COc1ccc(OC(=O)N2CCOCC2)cc1	-3.3	-2	-1	-7	i	-2.4	16	8	2.5	0
COc1cc2c(cc1NC(=O)C(c1ccccc1)c1ccccc1)CCCC2	0.8	.	31	1	.	.	.	.	.	18
NC(=O)c1ccc(/C(N)=N/S(=O)(=O)c2cc(C(F)(F)F)cc(C(F)(F)F)c2)cc1	6.0	-33	-3	28	i	0.9	-21	-24	-4.4	-3
CC(=O)Oc1ccc2occ(C(=O)c3cccs3)c2c1	-0.3	41	.	-1	.	.	.	.	.	11
COc1ccc(Oc2ccc(C(F)(F)F)cc2NC(=O)c2ccc(C)cc2)cc1	5.4	1	8	3	.	?	7	-1	-4.8	28
CCOc1ccc(CCNC(=O)Cn2nc(C)n3cccc3c2=O)cc1OCC	3.4	10	-6	-11	.	.	.	.	.	10
COc1ccc(CCNC(=O)C2CCCN(c3nc4ccccc4s3)C2)cc1OC (stereo not drawn)	4.0	10	-1	0	i	-2.1	-2	-18	-2.4	5
CS(=O)(=O)c1ccc(NCCN2CCOCC2)c([N+](=O)[O-])c1	4.3	.	-5	-2	i	-2.7	4	11	-3.3	7
CC1(C)OC(=O)C(=CNn2cnc3ccccc3c2=O)C(=O)O1	-0.4	.	-4	11	.	.	.	.	.	1
COC(=O)[C@@H](Cc1ccccc1)NC(=O)NCCc1ccc(OC)c(OC)c1	-1.6	-2	-3	2	i	-0.7	16	0	-1.9	2
CC1(C)Oc2ccc3ccc(=O)oc3c2/C(=C/NC2CCCCC2)C1=O	-1.7	3	7	.	.	.	.	.	.	9
COc1cc(OC)cc(C(=O)NNC(=O)CCC(=O)c2cc(C)sc2C)c1	.	.	3	.	i	-1.6	-4	-11	-3.4	.
CC(=O)Oc1ccc(CCC(C)OC(C)=O)cc1 (stereo not drawn)	-4.6	1	-7	-3	i	-53	9	13	-0.6	-4
COc1cccc(CNC(=O)C2CCN(S(=O)(=O)N3CCC4(CC3)OCCO4)CC2)c1	4.2	-10	-2	-3	.	.	.	.	.	-3
CN(C)c1cccc(C(=O)NNC(=O)C23CC4CC(CC(C4)C2)C3)c1	.	3	1	.	i	4.2	-1	4	-1.2	.
C/C(=N\NC(=O)c1nonc1N)c1cccs1	2.4	.	-2	7	i	-5.6	5	-4	-2.5	-25
O=C(NCc1cccs1)C1CC(O)CN1C(=O)Nc1ccccc1 (stereo not drawn)	3.0	-2	.	7	i	-0.4	.	.	.	-10
Cc1cc(C)n(CC(=O)NC2CCCc3c2cnn3-c2ccc(C)c(C)c2)n1 (stereo not drawn)	2.9	-1	-3	-19	i	3.4	-10	-16	0.1	-3
CC(C)COc1cccc(C(=O)Nc2ccc(CN3CCOCC3)cc2)c1	0.7	.	-3	-8	i	-2.7	-12	-13	0.1	3
COc1cc(C)c(N)cc1C(C)C	2.5	98*	-1	-3	.	.	.	.	.	67*
CC(=O)c1ccc(Nc2cc(C)nc3ncnn23)cc1	-1.5	.	-2	2	i	2.7	7	9	-1.1	4
O=C(c1ccncc1)N1CCN(S(=O)(=O)c2ccc3ccccc3c2)CC1	-2.1	-3	-3	-4	i	1.6	-8	-6	-1.5	-7
Cc1ccc(S(=O)(=O)N2CCN(C(=O)CSc3ccccn3)CC2)c(C)c1	?	-8	-4	3	i	-0.8	2	-7	5.3	7
CCc1cccc(CC)c1NC(=O)Cn1c(-c2ccc(F)cc2)noc1=O	5.7	0	-2	-33	i	-0.5	-17*	5.9*	2.2*	-5
Cc1ccc(CN2CCN(Cc3cccc4c3OCO4)CC2CCO)cc1 (stereo not drawn)	-6.5	-9	12	-28	i	-9.8	0	8	3.8	90*
C/C(=N\NC(=O)c1nn(C)cc1Br)c1ccncc1	1.2	-1	-1	11	.	.	.	.	.	-16
Cc1cccc(OCc2nnc(SCC(=O)Nc3sc(C)c(C)c3C#N)n2C)c1	0.8	.	-1	-2	.	.	.	.	.	13
Cc1nc(C)c(-c2ccc(SCC(=O)Nc3cccc(Cl)c3)nn2)s1	-0.8	7	-2	-4	i	-17	5	3	4.8	23
CCCN1CCc2c(sc(NC(=O)Cc3ccc(F)cc3)c2C(N)=O)C1	133*	-6	-6	3	i	3.0	-6	-7	4.5	-3
COc1ccc(CN(C(=O)c2oc3ccccc3c2C)C2CCS(=O)(=O)C2)cc1 (stereo not drawn)	-2.7	-12	-4	14	.	.	.	.	.	9
Cc1ccc(C)c(OCCC(=O)NCCc2ccc(Cl)cc2)c1	1.1	-23	-8	61	i	-2.2	13	11	0.8	-5
CCOc1ccc(/C=N/Nc2ccccn2)cc1	2.1	30	-4	-15	i	0.9	3	2	-2.0	-3
Cc1ccnc(NC(=O)CCc2c(C)nc3ncnn3c2C)c1	-5.6	-11	-4	-6	.	.	.	.	.	-9

The list is partial; the hit share may differ from the screen's.
